# A1 inh – caspase 3/7 activation in MEF A1-2A-BIM cells, primary screen, A1 inhibitor project, cell-based, luminescence, HTS; AID 2462, 2010; actives 0.066% (n = 330,000); Caspase-Glo 3/7 luminescence, 3 h; percent of clofoctol response, vehicle zero; caspase activation, % (concentration not given with the values);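 active = over half of replicate activation scores above 10%, or exactly half above 10 with the replicate mean above 10; inconclusive = replicate mean below 10 yet half the replicates above 10; inactive = over half of replicates below 10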;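 note: wells of about 30 µL received 50 nL stock; many hits fall short of the cut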
# Ecoli growth – E. coli growth inhibition, primary screen, OD600; AID 1053175, 2014; actives 0.21% (n = 330,000); OD600 absorbance (concentration not given with the values); Escherichia coli growth, 23 h; hits give low values;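 active = OD600 absorbance below the run mean of sample wells minus 3.6 SD, in any replicate, cut at about 0.56 in these data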;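 note: stock transfer was 300 nL into about 60 µL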
# Vif TR-FRET – inhibitors of Vif binding to APOBEC3G peptide, primary screen, biochemical, TR-FRET, GST-Vif 1-94, biotin-A3G peptide, dose response retest (AID 1117319); actives 0.57% (n = 260,000); inhibition, %; hits with a dose series show IC50 in µM; TR-FRET GST-Vif / biotin-A3G peptide binding; higher % means a stronger effect; test concentration not given here; strong numbers were not always called active;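 active = above the screen mean plus three standard deviations and confirmed in dose response; inconclusive = results disagree or hit not tested in dose response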;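 note: Vif residues 1-94 fused to GST binding biotinylated APOBEC3G peptide 110-148; 0% = full assay without inhibitor and 100% = GST in place of GST-Vif; retest series ran down from 100 µM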
# LANA-H2A inh – blockers of LANA interaction with H2A/H2B – biochemical, FP readout, HTS, primary screen | Protein LANA1 (Human herpesvirus 8 type P (isolate GK18)), Q9QR71 | cell-free LANA-H2A/H2B peptide, fluorescence polarization | inhibition, % (no concentration beside the values) | actives 0.6% (n = 320,000) | AID 2629, 2010; in the data active = inhibition mostly above about 10%, no sharp cut-off; inactive = mostly below about 6.7%;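 note: stock transfer was 7.5 nL into about 10 µL; 0% = median of vehicle wells and 100% = median of positive control wells; one replicate is shown; the record names a cut of 25% in any replicate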
# Target sequence (Q9QR71 whole entry, looked up): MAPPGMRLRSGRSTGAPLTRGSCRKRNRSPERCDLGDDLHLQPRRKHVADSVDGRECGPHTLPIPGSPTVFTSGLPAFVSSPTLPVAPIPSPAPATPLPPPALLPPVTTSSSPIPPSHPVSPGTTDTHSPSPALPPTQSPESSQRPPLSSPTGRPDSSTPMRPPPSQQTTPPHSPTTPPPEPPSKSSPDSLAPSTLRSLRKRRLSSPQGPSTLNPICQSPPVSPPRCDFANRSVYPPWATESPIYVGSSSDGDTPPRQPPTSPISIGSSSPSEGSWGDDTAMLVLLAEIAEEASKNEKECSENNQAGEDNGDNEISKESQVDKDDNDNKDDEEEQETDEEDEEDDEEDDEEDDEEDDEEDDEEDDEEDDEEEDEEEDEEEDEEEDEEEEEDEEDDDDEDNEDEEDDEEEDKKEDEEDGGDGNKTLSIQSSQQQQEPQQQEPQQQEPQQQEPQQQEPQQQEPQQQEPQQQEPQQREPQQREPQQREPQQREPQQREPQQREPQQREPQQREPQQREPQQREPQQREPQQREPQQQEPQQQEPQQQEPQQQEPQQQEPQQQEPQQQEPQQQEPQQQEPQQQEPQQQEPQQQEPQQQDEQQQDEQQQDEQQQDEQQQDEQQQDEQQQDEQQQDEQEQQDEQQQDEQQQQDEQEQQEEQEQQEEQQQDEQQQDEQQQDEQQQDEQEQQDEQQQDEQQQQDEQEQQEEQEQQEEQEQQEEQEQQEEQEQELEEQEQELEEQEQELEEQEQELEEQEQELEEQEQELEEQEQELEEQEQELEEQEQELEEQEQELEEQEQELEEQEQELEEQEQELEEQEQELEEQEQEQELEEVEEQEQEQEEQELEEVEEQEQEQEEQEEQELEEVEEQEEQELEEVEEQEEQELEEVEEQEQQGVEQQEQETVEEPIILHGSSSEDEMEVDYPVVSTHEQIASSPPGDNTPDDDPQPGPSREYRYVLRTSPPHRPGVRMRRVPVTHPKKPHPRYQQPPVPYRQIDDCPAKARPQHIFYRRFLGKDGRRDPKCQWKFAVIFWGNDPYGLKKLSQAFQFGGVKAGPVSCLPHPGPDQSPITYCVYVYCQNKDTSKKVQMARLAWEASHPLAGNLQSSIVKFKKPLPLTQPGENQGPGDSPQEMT
# UCH37 DUB inh – inhibitors of human UCH37 deubiquitinase, primary screen, biochemical, Ub-AMC cleavage, fluorescence | Ubiquitin carboxyl-terminal hydrolase isozyme L5 (Homo sapiens), Q9Y5K5 | purified proteasome/UCH37 | inhibition, % (concentration not given with the values) | actives 0.33% (n = 330,000);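 active = mean of two replicates above 20%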;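 note: 0% = compound-free wells with enzyme and 100% = wells lacking proteasome; stock transfer was 100 nL into about 20 µL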
#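 Reagent: Ub-AMC substrate; assay system: Proteasome-associated human UCH37 deubiquitinase; controls: no-proteasome and no-compound wells; read-out: % inhibition of Ub-AMC cleavage fluorescence; timing: 30 min preincubation with enzyme, 25 min cleavage at room temperature; signal: AMC fluorescence from Ub-AMC cleavage, excitation 355 nm, emission 460 nm; buffer or medium: Tris-HCl pH 7.4 plus ovalbumin, ATP-MgCl2, DTT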
# HNF4A DNA FP – change in binding of human HNF4A to DNA, primary screen, biochemical, fluorescence polarization, FITC-DNA | activity change, % at 10 µM | 1 h | actives 0.3% (n = 360,000) | Hepatocyte nuclear factor 4-alpha (Homo sapiens), P41235; in the data active = activity change above about 30%, passing the limit was not always enough;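 note: controls were the assay level and a saturating level of protein; the project sought stronger binding though the title names inhibitors; some compounds called inactive have numbers as strong as hits; positive values seem to mean higher polarization but the record does not say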
# B2AR ag – beta2AR agonists driving receptor internalization, primary screen, cell-based, FAP fluorogen, flow cytometry; Beta-2 adrenergic receptor (Homo sapiens), P07550; Am2.2-beta2AR cells; reference of the scale not given here; response, % (test concentration not listed); actives 0.43% (n = 340,000); AID 504454, 2011;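 active = response above a set limit, near 3 SD of response in nonfluorescent compounds, cut at about 42% in these data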;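 note: stock transfer was 100 nL into about 11 µL; a reference agonist was the positive control; negative values mostly stem from fluorescent compounds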
# Starred values were filed as active, the others as inactive; ? = inconclusive; nt = no result given; & = joins results of further samples.
SMILES,A1 inh,Ecoli growth,Vif TR-FRET,LANA-H2A inh,UCH37 DUB inh,HNF4A DNA FP,B2AR ag
O=C(Nc1ccc(Cl)c(C(=O)N2CCOCC2)c1)c1ccccc1,0.4,0.65,nt,3.2,6.0,-0.4,-1
COc1ccc2nc(Nc3sc4c(c3C(N)=O)CCCC4)sc2c1,0.7,0.71,nt,2.0,-21,21,6
CCOC(=O)C1CCCN(C(=O)C2COc3ccccc3O2)C1 (stereo not drawn),nt,0.67,4%,nt,0.4,1.8,7
COc1cc(C(=O)N/C(=C\c2cn(C)c3ccccc23)C(=O)NCCN2CCOCC2)cc(OC)c1OC,-2.0,0.64,3%,-3.8,9.9,2.1,14
O=C(NCc1ccco1)c1cccc2c1C(=O)c1ccc(N3CCC(Cc4ccccc4)CC3)cc1S2(=O)=O,-1.1,0.71,nt,-0.6,0.0,-25,-26
CCOC(=O)C1=NN(c2ccc(F)cc2)C2=NC(C)=C(C(=O)OC)C(c3cccs3)N12 (stereo not drawn),-0.7,0.68,nt,-0.4,7.4,1.0,-4
Cc1cccc(OCC(=O)OC(C)C(=O)Nc2ccc(Cl)cn2)c1 (stereo not drawn),-0.2,0.63,-1%,2.3,3.7,-4.7,6
O=C(NCCCNC(=O)c1ccccn1)c1ccc(Br)cc1,1.0,0.67,nt,-3.6,2.4,-2.8,0
COc1ccc(S(=O)(=O)N(C)C)cc1NC(=O)CSc1nnc(-c2cccnc2)o1,0.5,0.7,?,-2.6,2.4,-1.8,-11
CCc1noc(C)c1C(=O)N1CCCC(N2CCN(c3ccccc3F)CC2)C1 (stereo not drawn),0.5,0.68,nt,-2.0,6.3,2.6,-1
COc1cc(C(=O)NNC(=O)c2ccccc2Br)ccc1OCC(=O)N1CCOCC1,0.2,0.66,-3%,3.2,4.2,-2.8,-14
COc1ccc(Cl)cc1NS(=O)(=O)c1ccc(OC)c(OC)c1,-0.9,0.73,-1%,-0.8,-1.4,-3.1,8
Cc1cccc(C(=O)Nc2ccccc2SCC2CSc3nc4ccccc4c(=O)n32)c1 (stereo not drawn),0.0,0.72,0%,4.9,1.6,1.4,-4
Cc1ccc(C(=O)N/N=C\c2ccncc2)s1,-0.1,nt,nt,-2.1,nt,2.4,2
COc1ccc2nc(N3C(=O)CC(Cc4ccc(Cl)cc4)C3=O)sc2c1 (stereo not drawn),0.1,0.71,-2%,1.0,3.9,-2.9,-4
COc1cc(OC)cc(C(=O)Nc2ccc(S(=O)(=O)Nc3cnc4ccccc4n3)cc2)c1,0.2,0.65,nt,-0.4,-14,0.2,8
COc1ccc(/C=C2\SC(=O)N(CCNC(=O)Cc3coc4cc(OC)ccc34)C2=O)cc1,1.4,0.73,1%,0.1,1.8,-2.9,0
Cc1ccc(C)c(Sc2ccc(NC(=O)CCl)cc2)c1,0.6,0.66,nt,-5.8,3.4,nt,nt
CC(c1ccccc1)n1cnc2ccccc2c1=O (stereo not drawn),0.2,0.7,nt,4.5,4.6,0.0,-7
Cc1c(C(=O)NCC2CCCO2)oc2ccc(S(=O)(=O)N3CC(C)CC(C)C3)cc12 (stereo not drawn),0.2,0.73,-8%,-2.3,6.6,0.3,3
COc1ccc(/C(C)=N/NC(=O)c2ccncc2)cc1[N+](=O)[O-],0.3,nt,nt,-1.4,nt,-6.6,0
Cc1ccccc1C(=O)Nc1cccc(-c2cn3ccccc3n2)c1,-1.4,0.67,6%,0.5,-5.4,-0.9,12
CSc1ccc(C2C(C(=O)c3ccco3)=C(O)C(=O)N2c2nnc(SC)s2)cc1 (stereo not drawn),0.0,nt,nt,9.5,nt,-42,2
COc1cccc(C2C(C(N)=O)=C(C)Nc3nc(-c4ccccc4Cl)nn32)c1 (stereo not drawn),0.0,0.79,6%,4.7,-3.9,-2.6,-1
CCOc1ccccc1-n1c(CN2CCN(C(=O)c3ccco3)CC2)nc2ccccc2c1=O,0.3,0.67,1%,-3.1,4.6,0.5,0
Cc1ccc(S(=O)(=O)Nc2ccc(NC(=O)c3c(F)c(F)c(F)c(F)c3F)cc2)cc1,-0.3,0.68,2%,0.0,3.8,-0.8,5
COc1cc(CN(CCc2c(C)[nH]c3ccc(C)cc23)C(=S)NC(C)(C)C)cc(OC)c1OC,0.1,0.74,8%,4.7,5.1,2.2,10
Cc1ccccc1-c1nc2ccccc2[nH]1,-3.0,0.71,11%,-3.0,1.2,-1.6,0
Cn1c(=O)oc2cc(S(=O)(=O)N3CCCC3)ccc21,0.2,0.68,0%,1.0,2.1,4.5,-11
CC(CCc1ccccc1)NC(=O)CN1CCN(c2ccc(O)cc2)CC1 (stereo not drawn),-1.1,0.71,nt,5.9,4.3,2.8,0
Cc1ccc(S(=O)(=O)N(C)CC(=O)NCC(=O)Nc2ccc(F)c(F)c2F)cc1,-0.3,0.68,-3%,2.6,3.3,3.3,-7
CCOC(=O)C1=C(CN2CCN(C(=O)c3ccco3)CC2)NC(=O)NC1c1ccc(F)cc1 (stereo not drawn),-1.4,0.68,-7%,-7.4,5.3,3.2,10
O=C(O)c1ccc(S(=O)(=O)c2ccccc2C(=O)O)c([N+](=O)[O-])c1,1.0,0.72,-4%,5.3,2.7,-26,-5
CC(C)S(=O)(=O)c1csc(NC(=O)Nc2cc(Cl)ccc2Cl)c1Cl,0.9,0.68,-10%,3.8,1.0,-1.5,-1
COc1ccc(CCNC(=O)C(=O)c2cn(CC(=O)N3CCOCC3)c3ccccc23)cc1,-1.9,0.7,-4%,-7.2,4.3,-0.3,3
COc1ccccc1N1CCN(CC(=O)c2c(C)[nH]c3cc(C)ccc23)CC1,-0.3,0.77,-1%,-6.5,4.0,-1.4,4
Cc1ccc(S(=O)(=O)Nc2ccccc2-c2ccccc2NS(=O)(=O)c2ccc(C)cc2)cc1,1.0,0.75,-3%&-1%,-4.9,1.4,1.1,10
COC(=O)CCCCCN1C(=O)NC(c2ccccc2)C(C(=O)OCc2ccccc2)=C1C (stereo not drawn),0.0,0.7,5%,1.3,1.8,-1.7,-2
CCN(C(=O)CSc1nc2ccc(C)cc2[nH]1)C1CCS(=O)(=O)C1 (stereo not drawn),-0.2,0.66,nt,0.2,2.7,0.4,5
COc1ccc(S(=O)(=O)N(CC(=O)NC2CC2)C2CCCCC2)cc1Cl,-0.4,0.62,20%,3.8,1.7,4.9,-8
CCOC(=O)C1=C(COC(=O)/C=C/c2cccc(OC)c2OC)NC(=O)NC1C (stereo not drawn),-0.4,0.72,nt,13,-0.1,0.9,12
O=c1oc(Cc2ccccc2)nc2ccccc12,-4.9,0.63,-13%,-1.3,1.0,-1.0,1
CCOc1ccc(S(=O)(=O)Nc2ccc(C(=O)NCCCN3CCCC3=O)cc2)cc1,0.1,0.69,5%,1.4,-0.1,1.6,5
CCN(c1nc(C)cc(OC)n1)S(=O)(=O)c1ccccc1,1.1,0.73,18%,-1.7,5.6,1.0,4
CC(CN1C(C)CCCC1C)OC(=O)c1ccc(Cl)cc1 (stereo not drawn),0.1,0.63,0%,1.0,-0.1,2.2,-13

# An excerpt from above in order of count of non-hydrogen atoms, lowest first:
SMILES,A1 inh,Ecoli growth,Vif TR-FRET,LANA-H2A inh,UCH37 DUB inh,HNF4A DNA FP,B2AR ag
CC(CN1C(C)CCCC1C)OC(=O)c1ccc(Cl)cc1 (stereo not drawn),0.1,0.63,0%,1.0,-0.1,2.2,-13
CC(C)S(=O)(=O)c1csc(NC(=O)Nc2cc(Cl)ccc2Cl)c1Cl,0.9,0.68,-10%,3.8,1.0,-1.5,-1
COc1ccc(CCNC(=O)C(=O)c2cn(CC(=O)N3CCOCC3)c3ccccc23)cc1,-1.9,0.7,-4%,-7.2,4.3,-0.3,3

# Following part.
SMILES,A1 inh,Ecoli growth,Vif TR-FRET,LANA-H2A inh,UCH37 DUB inh,HNF4A DNA FP,B2AR ag
O=C(Nc1nc2ccccc2[nH]1)C1CCCO1 (stereo not drawn),-0.8,0.71,0%,-0.4,0.7,2.1,2
CCc1nnc(NC(=O)c2ccc(S(=O)(=O)N3CCc4ccccc4C3)cc2)s1,0.3,0.71,0%,-0.7,2.3,0.1,0
O=C(O)c1ccc(/C=C2\COc3ccccc3C2=O)cc1,-2.5,0.65,nt,-5.3,-3.8,-3.0,8
COc1cccc(NC(=O)CSc2nc3n[nH]c(C)c3c(=N)n2-c2cccc(OC)c2)c1,0.2,0.78,-1%,3.0,4.6,0.6,-13
CC(=O)c1ccc(-n2c(CCC(=O)O)ccc2-c2ccc(Br)cc2)cc1,-0.8,0.7,-33%,0.8,3.2,-1.2,5
O=C(Nc1ccc2c(c1)OCCO2)c1ccncc1,-4.4,0.74,3%,-3.2,2.5,1.1,-4
CC(C)CN1C(=O)/C(=C/c2ccco2)NC1=S,0.5,0.69,?,3.2,2.9,1.2,4
CCC(=O)N1CCN(c2cc(N3CCCC3)c(F)cc2[N+](=O)[O-])CC1,0.9,0.67,nt,-8.8,11,-4.2,-15
COCCCNC(=O)CN1CCN(Cc2ccc(Cl)cc2)C1=O,-0.2,0.71,2%,-0.7,4.1,4.1,-3
CC1CCCC(C)N1CC(O)COCc1ccccc1F (stereo not drawn),1.0,0.68,-6%,-3.6,1.3,-4.3,1
C=CCN(c1ccccc1OC)S(=O)(=O)c1cccc(C(=O)Nc2nnc(C3CC3)s2)c1,0.2,0.69,-7%,3.1,0.2,6.0,5
COc1ccc(CCNC(=O)c2ccc3c(c2)OCCO3)cc1,-1.4,0.69,nt,-2.5,1.8,1.3,3
CCCNc1c(N)n(-c2ccccc2)c(=O)[nH]c1=O,0.0,0.71,-4%,2.5,-24,2.4,-9
O=C(CCc1nc2ccccc2c(=O)[nH]1)NNC(=O)COc1ccc(Br)cc1,-0.1,0.69,6%,0.2,3.9,3.5,-3
O=C(CN(C(=O)CCC(=O)Nc1nccs1)c1ccc(F)cc1)NCc1ccco1,-0.1,0.71,1%,-2.0,4.8,-0.7,-14
COc1cc(NC(=O)CN2CCCCC2C)c(C)cc1[N+](=O)[O-] (stereo not drawn),-0.1,0.69,-9%,0.7,7.5,-0.6,0
CC(C)c1ccc(NS(=O)(=O)c2cn(C)c(=O)n(C)c2=O)cc1,0.0,0.65,-11%,1.4,1.5,-0.2,-9
CCOc1ccc(CCNC(=O)COC(=O)CNS(=O)(=O)c2ccc(C)cc2)cc1OCC,0.0,0.64,2%,-2.5,1.5,-0.7,5
O=c1cc(N2CCCCC2)c(-c2ccccc2)nn1Cc1ccc(Cl)cc1Cl,0.5,0.71,11%,-2.5,2.5,2.5,-12
CCOc1ccc(C(=O)O/N=C(\N)c2ccc([N+](=O)[O-])cc2)cc1OCC,-0.4,0.7,nt,1.3,3.5,-0.7,4
CC(C)C(=O)Nc1ccc(C(=O)NNC(=O)c2ccco2)cc1,-0.1,0.71,3%,-2.1,-0.5,1.0,2
COC(=O)C1=C(C)OC(N)=C(C#N)C1c1cccnc1 (stereo not drawn),0.9,0.69,9%,-1.3,5.6,-1.6,-8
O=C(OCC(=O)N1CCCC1)c1c(Cl)cccc1Cl,0.9,0.68,0%,1.4,2.3,-2.6,-2
O=C(NCCS(=O)(=O)N1CCN(c2ccc(F)cc2)CC1)c1ccc(Br)o1,-0.3,0.68,nt,-1.9,2.4,6.4,-1

# Not a hit list; any-hit rate near 2.1%.
